Bioassay records from PubChem BioAssay.
MLL AF4-AF9 inh: inhibitors of human MLL-AF4/AF9 interaction | P42568 | AlphaScreen, biotin-AF4 peptide binding to FLAG-AF9 | inhibition, % at 10 µM | hit rate 0.47% among 350,000 | AID 651704;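 active = every replicate reaching a set inhibition limit, whatever the replicate mean, cut at about 25% in these data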;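 also: 0% = plate neutral control median and 100% = total signal loss; the record names both 10 and 1 µM as test concentration; the first replicate is given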
Target sequence (P42568 whole entry, looked up): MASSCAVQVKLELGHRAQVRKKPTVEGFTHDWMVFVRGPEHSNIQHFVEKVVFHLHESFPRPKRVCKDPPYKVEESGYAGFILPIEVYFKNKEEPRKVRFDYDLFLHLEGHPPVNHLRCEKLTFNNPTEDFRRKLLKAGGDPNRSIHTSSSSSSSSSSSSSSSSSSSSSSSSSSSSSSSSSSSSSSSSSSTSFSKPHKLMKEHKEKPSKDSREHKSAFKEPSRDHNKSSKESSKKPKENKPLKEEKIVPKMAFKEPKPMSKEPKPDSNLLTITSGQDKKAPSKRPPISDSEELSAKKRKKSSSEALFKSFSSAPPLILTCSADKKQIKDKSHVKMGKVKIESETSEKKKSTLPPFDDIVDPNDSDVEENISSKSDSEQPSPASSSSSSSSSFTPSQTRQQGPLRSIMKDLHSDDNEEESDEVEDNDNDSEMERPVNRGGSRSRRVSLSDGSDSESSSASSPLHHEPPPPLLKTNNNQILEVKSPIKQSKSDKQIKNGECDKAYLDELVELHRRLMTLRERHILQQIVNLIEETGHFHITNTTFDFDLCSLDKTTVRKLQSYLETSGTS
rRNA inh HTS: inhibits bacterial ribosomal RNA function over humanized ribosomes. E. coli WT GFP vs humanized-ribosome RFP mutants, fluorescence, 24 h; stronger effect = lower value; DMSO median 0, no signal -100. GFP signal change (wild-type ribosome), % (no concentration beside the values). hit rate 1.6% among 350,000;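 active = significant combined selectivity score with lowered wild-type GFP, culture density cut under 30%, mutant RFP and density less affected; inactive = any of these conditions unmet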; also: one replicate is shown; some compounds called inactive have numbers as strong as hits
FGF22 binding: FGF22 (human) thermal shift binding; hit rate 1.5% among 340,000; Q9HCT0; recombinant FGF22 thermal shift, SYPRO orange fluorescence; percent of sucrose octasulfate shift, DMSO zero; calls only at 9.99 µM;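 active = melting point raised past a set limit in the mean and every replicate; three in four hits are not shown here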
Target sequence (Q9HCT0 whole entry, looked up): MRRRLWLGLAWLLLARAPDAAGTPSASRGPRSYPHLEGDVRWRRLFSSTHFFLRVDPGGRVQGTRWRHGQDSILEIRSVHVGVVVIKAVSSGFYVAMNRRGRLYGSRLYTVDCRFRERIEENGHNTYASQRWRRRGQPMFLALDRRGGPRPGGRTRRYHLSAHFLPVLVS
rRNA inh HTS OD600: further read-out of rRNA inh HTS, marked with its call; OD600 change, %; measured here: OD600 growth;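 optical density of the mix in the first replicate; 0 = DMSO median and -100 = no signal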
rRNA inh HTS RFP: further read-out of rRNA inh HTS, marked with its call; RFP signal change, %; measured here: RFP humanized mutant strains;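 first replicate; 0 = DMSO median and -100 = no signal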
Numbers without * were called inactive; i = inactive.

SMILES	MLL AF4-AF9 inh	rRNA inh HTS	rRNA inh HTS OD600	rRNA inh HTS RFP	FGF22 binding
Cc1ccc(S(=O)(=O)N(C)C[C@H]2Oc3c(NS(=O)(=O)c4c(C)noc4C)cccc3C(=O)N([C@H](C)CO)C[C@H]2C)cc1	-2.9	-4	-6	-0.1	i
C1CCN(CCC2CCCCN2)CC1 (stereo not given)	-5.2	6	7	2.5	i
CC(C)NC(=O)N(C)C[C@@H]1Oc2cc(-c3ccccc3F)ccc2S(=O)(=O)N([C@@H](C)CO)C[C@@H]1C	0.8	-2	3	1.7	i
CCCNC(=O)N1[C@H](CO)[C@H](c2ccccc2-c2ccc(F)cc2)[C@@H]1C#N	0.7	6	-3	-4.9	i
CC(C)CC#Cc1cnc2c(c1)C(=O)N([C@@H](C)CO)C[C@H](C)[C@@H](CN(C)C(=O)C1CCCCC1)O2	0.6	-5	-5	-2.3	i
COc1ccc(C(=O)Nc2c(F)c(F)c(F)c(F)c2F)cc1OC	-2.9	20	12	3.5	i
C[C@@H]1CCCCO[C@@H](CN(C)C)[C@H](C)CN([C@H](C)CO)C(=O)c2cc(N(C)C)ccc2O1	3.9	5	8	-2.7	i
CN(C)CCCNC(=O)C[C@H]1CC[C@@H](NC(=O)Cc2cccnc2)[C@H](CO)O1	-3.6	0	-7	-2.9	i
CN(C)C(=O)C[C@H]1C[C@H]2c3cc(NC(=O)c4cccnc4)ccc3O[C@H]2[C@@H](CO)O1	0.9	8	16	1.0	i
Cc1ccc(N2C(=O)c3ccccc3C2(O)c2ccccc2)cc1 (stereo not given)	-2.8	2	-1	-1.3	i
C[C@H]1CN([C@@H](C)CO)C(=O)c2cccc(NC(=O)C3CCOCC3)c2O[C@@H]1CN(C)Cc1ccc(C(=O)Nc2ccccc2N)cc1	-1.8	4	10	-0.3	i
COCCCNC(=O)C[C@H]1C[C@H](C(=O)N(C(C)C)C(C)C)[C@@]2(C)c3[nH]c4cc(CCC(=O)N(C)C)ccc4c3CCN2C1=O	-0.6	5	2	1.3	i
OC[C@H]1[C@@H](c2ccc(C#Cc3ccccc3F)cc2)[C@H]2CN(Cc3cncnc3)CCCCN21	2.3	5	-32	12	i
CCS(=O)(=O)Nc1ccc2c(c1)C(=O)N(C)C[C@@H](OC)[C@@H](C)CN(C(=O)CN(C)C)[C@@H](C)CO2	0.0	0	0	-2.4	i
COc1cccc(-c2ccccc2[C@@H]2[C@H](C#N)N(C(=O)c3ccccn3)[C@H]2CO)c1	-1.4	-6	-28	0.3	i
O=C(O)[C@H]1[C@H](CO)[C@H]2Cn3c(ccc(C4=CCCCC4)c3=O)[C@H]2N1C(=O)c1ccccc1F	-1.5	3	-2	-1.0	i
O=C1NC[C@H](Cc2ccccc2)N(C[C@H]2CCCN2C[C@H](Cc2ccccc2)N2C[C@H](Cc3ccccc3)N(CC3CCCCC3)C(=O)C2=O)C1=O	-10	2	-11	44	i
C[C@H](NC(=O)C[C@H]1C=C[C@H](NC(=O)C2CCC2)[C@H](CO)O1)c1ccccc1	0.1	2	6	-3.5	i
CCCNC(=O)N1[C@H](C#N)[C@@H](c2ccc(C#Cc3cccc(F)c3)cc2)[C@@H]1CO	-1.5	-8	-48	29	i
CC(C)(C)c1ccc(C(=O)NCc2nnc(SCC(=O)N3CCCC3)o2)cc1	-1.5	8	12	3.4	i
C/C=C/c1cnc2c(c1)C(=O)N([C@@H](C)CO)C[C@@H](C)[C@@H](CN(C)C(=O)Nc1ccc(F)cc1)O2	-7.1	0	5	-4.7	i
CC(=O)N1[C@H](CO)[C@H](c2ccc(-c3ccc(C#N)cc3)cc2)C12CN(C(=O)C1CC1)C2	-1.8	-2	-1	-1.4	i
O=C(Nc1ccc(F)cc1)N1C[C@@H]2[C@H](c3ccccc31)[C@H](CO)N2C(=O)c1ccccc1F	0.1	-1	5	-2.9	i
O=S(=O)(c1ccccc1)C1CC1(c1ccccc1)c1ccccc1 (stereo not given)	-3.3	-24	-34	-5.3	i
C[C@H]1CN([C@@H](C)CO)C(=O)c2cc(NC(=O)Nc3ccccc3)ccc2O[C@H]1CN(C)S(=O)(=O)c1cccs1	2.5	-7	-23	0.7	i
CC(C)NC(=O)NC(=O)CSc1ccc(S(=O)(=O)N2CCOCC2)cn1	-6.2	1	8	-1.8	i
CNC(=O)C[C@H]1CC[C@@H]2[C@@H](COc3ccc(NC(=O)Nc4ccc(Cl)cc4)cc3C(=O)N2C)O1	1.0	-9	-12	4.1	i
O=C(C[C@@H]1CC[C@H]2[C@@H](COC[C@@H](O)CN2Cc2cc(F)cc(F)c2)O1)Nc1nccs1	0.3	-3	3	-0.3	i
COc1cc(C2CC(=O)Oc3cc(C)c(Cl)c(C)c32)cc(OC)c1OC (stereo not given)	0.1	-40	-58	-12	i
C[C@@H]1CN([C@H](C)CO)S(=O)(=O)c2ccc(C3=CCCCC3)cc2O[C@H]1CN(C)Cc1ccccn1	14	-40	-48	12	i
COc1ccc([C@H]2C[C@@H](n3cc(C4CC4)nn3)[C@H](O)CN2C(=O)c2cccs2)cc1	1.2	-2	1	-2.1	i
COc1ccc(NC(=O)c2cc(C3CCCCN3C(=O)c3cc(F)ccc3C)on2)c(C)c1 (stereo not given)	1.6	-7	-17	3.8	i
N#C[C@@H]1[C@@H](c2ccccc2-c2ccc(F)cc2)[C@@H](CO)N1c1ncc(-c2ccccc2)s1	-1.3	-2	-9	0.4	i
Oc1ccccc1C=NN=Cc1ccccc1Cl	2.6	10	23	-2.0	i
CNC[C@@H]1Oc2c(NC(=O)C3CCCCC3)cccc2C(=O)N([C@H](C)CO)C[C@H]1C	5.4	2	0	2.6	i
C[C@H](CO)N1C[C@H](C)[C@H](CN(C)C)Oc2cc(C#CC3CCCC3)ccc2S1(=O)=O	-0.2	-1	-1	-2.6	i
Cc1ccc(S(=O)(=O)NCC[C@@H]2CC[C@@H](NC(=O)CC3CC3)[C@H](CO)O2)cc1	0.2	1	-11	-2.2	i
N#C[C@H]1N[C@H](CO)[C@@H]1c1ccc(-c2ccccc2F)cc1	-0.5	-2	-6	-0.8	i
O=[N+]([O-])c1ccc(S(=O)(=O)NN=CCCc2ccccc2)cc1	-2.0	-5	-1	2.2	i
CC(C)CC#Cc1cnc2c(c1)C(=O)N([C@@H](C)CO)C[C@H](C)[C@@H](CN(C)C(=O)c1ccccc1)O2	-1.5	-1	-3	2.9	i
CCN1[C@@H]2c3ccc(-c4ccncc4)c(=O)n3C[C@@H]2[C@@H](CO)[C@@H]1C(=O)NCCc1cn(C)cn1	-24	2	1	-2.9	i
COc1cccc(C(=O)Nc2ccc3c(c2)C(=O)N(C)C[C@H](OC)[C@H](C)CN(CC2CC2)[C@@H](C)CO3)c1	-5.2	-1	4	-2.2	i
O=C(O)C1=C(C(=O)O)C2C=CC1C2	-3.8	5	12	3.0	i
COC[C@H]1CCCN1c1ccc2c(c1)O[C@H](COCc1ccccc1)CN([C@H](C)c1ccccc1)S2(=O)=O	-0.5	13	13	8.4	i
COC(=O)C[C@H]1C[C@@H]2c3cc(NC(=O)CN(C)C)ccc3O[C@@H]2[C@@H](CO)O1	-7.9	3	1	-4.6	i
O=C(Cc1ccccc1)N[C@@H]1CC[C@H](CC(=O)N2CCCCC2)O[C@@H]1CO	1.5	2	0	-1.1	i
CC(C)CC#Cc1cnc2c(c1)C(=O)N([C@H](C)CO)C[C@@H](C)[C@@H](CN(C)C(=O)Nc1ccccc1F)O2	-2.0	-2	0	3.3	i
COC(=O)C[C@H](NC(=O)Cn1cnc2c(NCc3ccccc3)ncnc21)C(=O)OC	-2.7	1	5	0.0	i
C[C@@H]1CN([C@@H](C)CO)S(=O)(=O)c2ccc(C3=CCCCC3)cc2O[C@H]1CN(C)C(=O)Nc1ccc2c(c1)OCO2	10	3	-5	5.1	i
CCC(=O)Nc1ccc2c(c1)C(=O)N(C)[C@@H]1CC[C@H](CC(=O)NCCCN(C)C)O[C@H]1CO2	-0.7	2	12	-2.7	i

Following part
SMILES	MLL AF4-AF9 inh	rRNA inh HTS	rRNA inh HTS OD600	rRNA inh HTS RFP	FGF22 binding
COCC(=O)Nc1ccc2c(c1)C(=O)N(C)C[C@@H](OC)[C@H](C)CN(Cc1cc(F)ccc1F)[C@H](C)CO2	2.9	-6	1	1.2	i
CO[C@@H]1CN(C)C(=O)c2ccc(NC(=O)C3CCC3)cc2OC[C@@H](C)N(C)C[C@@H]1C	0.1	2	4	-4.1	i
O=C(OCc1cn([C@@H]2C[C@H](c3ccccc3)N(C(=O)C3CCCCC3)C[C@H]2O)nn1)c1ccccc1	3.9	0	-15	4.2	i
O=C(C1CCOCC1)N1C[C@@H]2[C@H](c3ccccc31)[C@@H](CO)N2C(=O)Nc1ccccc1F	0.0	5	1	-1.0	i
CC(C)NC(=O)c1cc(-c2ccc(F)cc2OC(C)C)n[nH]1	-3.1	-5	-14	2.8	i
N#C[C@@H]1[C@H](c2ccc(C3=CCCCC3)cc2)[C@H](CO)N1C(=O)CN1CCOCC1	2.1	2	-13	-0.4	i
O=C(C[C@H]1C[C@H]2c3cc(NC(=O)NC4CCCC4)ccc3O[C@H]2[C@@H](CO)O1)NCc1ccncc1	-3.7	3	14	-2.0	i
C=CCN(CC=C)Cc1cc(=O)oc2cc(C)cc(C)c12	2.4	-8	-35	-15	i
CCOc1ccc(OCC(=O)OCC(=O)Nc2ccccc2C#N)cc1	-3.4	4	2	-1.5	i
CO[C@@H]1CN(C)C(=O)c2ccc(NC(=O)NC3CCCCC3)cc2OC[C@@H](C)NC[C@H]1C	-4.4	3	5	1.1	i
COc1ccc(-c2ccccc2[C@H]2[C@@H](C#N)N(C(=O)C3CC3)[C@H]2CO)cc1	-1.9	0	-1	-3.6	i
CN1CCN(c2ccc3c(c2)OC[C@@H](Cc2ccccc2)NS3(=O)=O)CC1	-2.3	6	7	3.3	i
C=Cc1ccc(Cn2c(C)c(C(=O)NCc3ccccc3C(F)(F)F)sc2=O)cc1	-5.8	4	5	-2.1	i
CCCC#Cc1cnc2c(c1)C(=O)N([C@@H](C)CO)C[C@H](C)[C@H](CN(C)C(=O)c1ccc(F)cc1)O2	-0.9	2	8	2.5	i
COc1cccc(S(=O)(=O)N(C)C[C@@H]2Oc3ncc(/C=C/c4ccccc4)cc3C(=O)N([C@H](C)CO)C[C@@H]2C)c1	2.5	-3	3	3.3	i
C[C@@H]1CCCCO[C@H](CN(C)Cc2ccncc2)[C@H](C)CN([C@@H](C)CO)C(=O)c2cc(NS(=O)(=O)c3cn(C)cn3)ccc2O1	-7.1	4	15	-2.4	i
O=C(C[C@@H]1C[C@H]2c3cc(NC(=O)c4ccc5c(c4)OCO5)ccc3O[C@H]2[C@H](CO)O1)NCc1ccc(Oc2ccccc2)cc1	1.0	0	11	2.8	i
O=C(C[C@H]1CC[C@H](NC(=O)Nc2ccccc2F)[C@@H](CO)O1)NCc1ccccc1	-0.6	2	8	-0.8	i
COCC(=O)N1C[C@H](C)[C@H](OC)CN(C)C(=O)c2cc(NC(=O)Nc3ccccc3)ccc2OC[C@@H]1C	2.8	0	5	2.6	i

Entries of single compounds from above.
Results for `COc1ccc(-c2ccccc2[C@H]2[C@@H](C#N)N(C(=O)C3CC3)[C@H]2CO)cc1` → MLL AF4-AF9 inh = -1.9; rRNA inh HTS = 0; rRNA inh HTS OD600 = -1; rRNA inh HTS RFP = -3.6; FGF22 binding = i
Results for `O=C(C[C@@H]1C[C@H]2c3cc(NC(=O)c4ccc5c(c4)OCO5)ccc3O[C@H]2[C@H](CO)O1)NCc1ccc(Oc2ccccc2)cc1` → MLL AF4-AF9 inh = 1.0; rRNA inh HTS = 0; rRNA inh HTS OD600 = 11; rRNA inh HTS RFP = 2.8; FGF22 binding = i

A portion of the library. The share of hits here may be higher or lower than overall.
